D2 PAM = Beta-Arrestin HTS for Positive Allosteric Modulators of the Human D2 Dopamine Receptor: Potentiators; D(2) dopamine receptor (Homo sapiens), P14416; DiscoveRx D2 beta-arrestin cells, luminescence, 90 min; 100% = 57 uM dopamine signal; potentiation, % (no concentration beside the values); actives 0.23% (n = 360,000); active = potentiation of 50% or more; inconclusive = 30% to 50%; inactive = 30% or less;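 also: compound concentration not given in the record; tested on top of an EC20 dose of dopamine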
Target sequence (P14416 whole entry, looked up): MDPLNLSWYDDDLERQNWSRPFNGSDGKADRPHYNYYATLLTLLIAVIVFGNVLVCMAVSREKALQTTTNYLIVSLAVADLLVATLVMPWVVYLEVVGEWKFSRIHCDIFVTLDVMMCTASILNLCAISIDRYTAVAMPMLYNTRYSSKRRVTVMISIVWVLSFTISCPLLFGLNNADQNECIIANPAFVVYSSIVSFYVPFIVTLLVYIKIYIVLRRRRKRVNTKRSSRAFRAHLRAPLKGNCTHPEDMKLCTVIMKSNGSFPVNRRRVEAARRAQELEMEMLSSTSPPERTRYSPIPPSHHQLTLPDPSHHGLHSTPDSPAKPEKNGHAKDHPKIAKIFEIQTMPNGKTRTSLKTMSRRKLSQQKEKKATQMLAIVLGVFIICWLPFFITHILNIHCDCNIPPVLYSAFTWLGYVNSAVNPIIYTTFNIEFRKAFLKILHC
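PathHunter D2 cells, attached overnight at 37 deg C, received compound in DMSO plus dopamine at EC20 (50 nM final) for 90 min at 37 deg C. Beta-arrestin recruitment was read as luminescence after 1 h with detection reagent at ambient temperature.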
ClpP mod = qHTS Assay for Activators of ClpP | AID 651965, 2013 | ATP-dependent Clp protease proteolytic subunit (Bacillus subtilis (strain 168)), P80244 | Potency, µM (highest dose often 57.5 µM), for inactives: top-dose activity change, negative = active | actives 1.9% (n = 340,000) | purified B. subtilis ClpP, FRET peptide cleavage, 20 min; active = well fitted falling curve with a large enough effect; inconclusive = small, poorly fitted or top-dose-only effect; inactive = no such curve, though single readings can be large or run the other way; also: potency is read from the fitted curve at half-maximal effect; the source files actives as falling curves though it sought activators and does not explain the sign; nearly all actives have a fitted effect of over 65% in size; many hits overshoot -100%
Target sequence (P80244 whole entry, looked up): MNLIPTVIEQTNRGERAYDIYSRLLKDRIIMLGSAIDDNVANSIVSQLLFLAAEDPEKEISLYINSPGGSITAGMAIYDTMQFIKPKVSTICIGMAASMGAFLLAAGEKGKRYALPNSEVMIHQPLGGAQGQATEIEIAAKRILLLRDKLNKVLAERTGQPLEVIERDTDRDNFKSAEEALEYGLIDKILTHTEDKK
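FRET quenching reversal measured ClpP activation: 10 microg/mL B. subtilis ClpP at pH 8 with the FRET-FV decapeptide, read at 430 nm after 320 nm excitation. The 20-min minus 0-min signal was scaled between DMSO/no-enzyme wells and ADEP (5.8 microM final).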
An asterisk follows results filed as active; ? = inconclusive.

No. | SMILES | D2 PAM | ClpP mod
1 | COc1ccccc1-c1cnc(C(O)c2ccc(Cl)c(F)c2)[nH]1 (centres undefined) | -20 | 1.2%
2 | CC1(C(=O)NS(=O)(=O)c2ccccc2C(F)(F)F)CCN1C(=O)CCc1ccccc1 (centres undefined) | 1 | -2.3%
3 | COC[C@@H]1CCCN1[C@@H]1CS(=O)(=O)N[C@H]1COCc1ccccc1 | -6 | -3.3%
4 | COc1cccc(CNc2nc3cc(-c4ccccc4C)sc3c(=O)n2C)c1OC | -4 | -24%
5 | CCCOc1ccc(F)cc1-c1cc(C(=O)Nc2ccc(OC)nc2)[nH]n1 | -7 | -0.1%
6 | CCCCC(=O)N(C)c1c(CC)nc2c(OCc3ccc(C#N)cc3)cccn12 | -1 | 0.3%
7 | COc1ccc(Br)c(Cn2c(C)c(C(=O)NCc3ccccc3C(F)(F)F)sc2=O)c1 | -5 | 1.8%
8 | CCCCC(c1nc2ccccc2[nH]1)n1c(-c2ccccc2)nc2ccccc21 (centres undefined) | -4 | -4.2%
9 | CNS(=O)(=O)c1ccc(CNC[C@H]2O[C@@H](n3cnc4c(=O)[nH]c(N)nc43)[C@H](O)[C@@H]2O)cc1 | -2 | 0.0%
10 | COc1ccccc1Cc1c(-c2cccc(Cl)c2)nc2ccc(Cl)cn12 | -9 | ?
11 | CCOC(=O)C1(C)CCN1C(=O)c1cccc(C(F)(F)F)c1 (centres undefined) | -3 | 1.9%
12 | COc1ccccc1Cc1c(-c2ccc(Cl)cc2)nc2ccc(Br)cn12 | -5 | -8.7%
13 | Cn1cc(-c2csc(C(O)c3ccccc3)n2)cn1 (centres undefined) | 2 | -1.5%
14 | COc1ccc(-c2csc(C(C)(O)c3ccccc3)n2)cc1OC (centres undefined) | -1 | 0.0%
15 | COCCN(CCOC)Cc1cc(=O)oc2cc(C)c(C)cc12 | -3 | -8.4%

The list goes on (7 carried over from the part before).
No. | SMILES | D2 PAM | ClpP mod
9 | CNS(=O)(=O)c1ccc(CNC[C@H]2O[C@@H](n3cnc4c(=O)[nH]c(N)nc43)[C@H](O)[C@@H]2O)cc1 | -2 | 0.0%
10 | COc1ccccc1Cc1c(-c2cccc(Cl)c2)nc2ccc(Cl)cn12 | -9 | ?
11 | CCOC(=O)C1(C)CCN1C(=O)c1cccc(C(F)(F)F)c1 (centres undefined) | -3 | 1.9%
12 | COc1ccccc1Cc1c(-c2ccc(Cl)cc2)nc2ccc(Br)cn12 | -5 | -8.7%
13 | Cn1cc(-c2csc(C(O)c3ccccc3)n2)cn1 (centres undefined) | 2 | -1.5%
14 | COc1ccc(-c2csc(C(C)(O)c3ccccc3)n2)cc1OC (centres undefined) | -1 | 0.0%
15 | COCCN(CCOC)Cc1cc(=O)oc2cc(C)c(C)cc12 | -3 | -8.4%
16 | CC1(C(=O)Nc2cccc(Oc3ccccc3)c2)Cc2c(-c3ccccc3)ccnc2O1 (centres undefined) | -8 | -18%
17 | CC1(C(=O)NS(=O)(=O)Cc2ccccc2)CCN1C(=O)C1(c2ccc(Cl)cc2)CC1 (centres undefined) | 3 | -2.0%
18 | COc1ccc(NC(=O)[C@@H]2O[C@H](CO)[C@H](O)[C@H](O)[C@H]2O)cc1F | -1 | -0.5%
19 | C=CCNc1nc(NCCOC)c2sc(-c3ccccc3)cc2n1 | -25 | -23%
20 | CCOC(=O)C1=CCN(S(=O)(=O)c2ccc(C)cc2)C1c1ccc(Br)cc1 (centres undefined) | -2 | 1.4%
21 | CC1(C(=O)NS(=O)(=O)c2ccccc2Cl)CCN1C(=O)Cc1ccc(Cl)cc1Cl (centres undefined) | -4 | -3.3%
22 | CCC(CC)C(=O)N(C)c1c(C)nc2c(OCc3ccc(Cl)cc3)cccn12 | -3 | 0.3%
23 | CC1=C(C(=O)OC(C)C)C(c2ccc(Cl)cc2)n2c(sc(=Cc3ccc(OCC(=O)O)cc3)c2=O)=N1 (centres undefined) | -4 | -1.8%
24 | CCOC(=O)C1(C)CCCN(C(=O)Cc2ccc3ccccc3c2)C1 (centres undefined) | -5 | 1.0%
25 | CN1CCN(C(=O)c2ccc(-c3cc4nc(NCc5cccnc5)n(C)c(=O)c4s3)cc2)CC1 | -10 | 4.9%
26 | O=C(NCc1ccncc1)C1Cc2c(-c3ccc4c(c3)OCO4)ccnc2O1 (centres undefined) | -4 | 4.9%
27 | CNc1nc(Oc2ccc3sc(C)nc3c2)c2sccc2n1 | 2 | 4.0%
28 | O=c1cc(CN2CCOCC2)c2ccccc2o1 | 6 | -1.7%
29 | COc1ccc(F)cc1-c1cc(C(=O)Nc2cccnc2)[nH]n1 | -10 | -1.2%
30 | COc1ccc(Cc2c(-c3ccccc3)nc3c4ccccc4ccn23)c(C)c1 | -7 | ?

Looked up one by one from the entries so far, 2 records:
No. | SMILES | D2 PAM | ClpP mod
23 | CC1=C(C(=O)OC(C)C)C(c2ccc(Cl)cc2)n2c(sc(=Cc3ccc(OCC(=O)O)cc3)c2=O)=N1 (centres undefined) | -4 | -1.8%
27 | CNc1nc(Oc2ccc3sc(C)nc3c2)c2sccc2n1 | 2 | 4.0%

Next section
No. | SMILES | D2 PAM | ClpP mod
31 | CC(=O)Nc1ccc(-c2ccnc3c2CC(C)(C(=O)NCc2ccco2)O3)cc1 (centres undefined) | 6 | 4.9%
32 | COCCNC(=O)C1(C)CCCN(Cc2ccccc2N(C)C)C1 (centres undefined) | -5 | -6.4%
33 | CCCCN(C=O)c1c(CC)nc2ccc(C(=O)N3CCN(C(C)=O)CC3)cn12 | -2 | -3.2%
34 | CCOC(=O)c1ccc(O)c(-n2cc3c(c2-c2ccccc2)c(=O)n(C)c(=O)n3C)c1 | -4 | -9.8%
35 | COc1ccc(-c2coc3c(C(=O)NCCN4CCOCC4)cccc23)c(C)c1 | -10 | -0.9%
36 | CC1(C(=O)NS(=O)(=O)c2cccc(OC(F)F)c2)CCN1C(=O)c1ccccc1CCc1ccccc1 (centres undefined) | 0 | 0.1%
37 | CCCS(=O)(=O)NC(=O)C1(C)CCCN(C(=O)c2cccnc2Oc2ccccc2)C1 (centres undefined) | -5 | -1.1%
38 | OC[C@H]1O[C@@H](c2nc(-c3ccc4[nH]ccc4c3)no2)[C@H](O)[C@@H](O)[C@H]1O | -1 | -2.4%
39 | CC1(C(=O)NCc2ccccc2)CCC(=O)N1C1CC1 (centres undefined) | 1 | 1.9%
40 | CCCCC(=O)N(C)c1c(C)nc2ccc(C(=O)N3CCNC(=O)C3)cn12 | -4 | -2.5%
41 | COCCNc1ncnc2c1ncn2[C@H]1CN(Cc2cccs2)C[C@@H](CO)O1 | -3 | -1.8%
42 | O=C(CSc1nc2cccc(F)c2c(=O)n1-c1ccccc1)Nc1ccc2c(c1)CCC2 | -2 | ?
43 | CCc1nc2ccc(C(=O)N(C)Cc3ccccc3)cn2c1N(C)Cc1ccc(OC)cc1 | 1 | -0.2%
44 | CCN(CC)c1ncnc2c1ncn2[C@H]1CN(Cc2ccccc2)C[C@@H](CO)O1 | -9 | -2.9%
45 | CCCCN(C=O)c1c(CC)nc2ccc(C(=O)NCCCn3ccnc3)cn12 | -7 | -15%
46 | COCCNc1nc(Oc2cccc3ccccc23)c2sccc2n1 | 3 | ?
47 | COc1ccc(NC(=O)c2sc(=O)n(Cc3ccccc3C#N)c2C)cc1OC | -5 | 27%
48 | CC(O)(c1ccccc1)c1nc(/C=C/c2ccccc2)cs1 (centres undefined) | -9 | -7.3%
49 | Cc1ccsc1C(=O)N1CCCCCC1(C)C(=O)NCC(C)C (centres undefined) | -2 | 2.6%
50 | COc1cc(Cn2c3ccc(NC(=O)CC(C)C(F)(F)F)cc3c(=O)n2C)ccc1F (centres undefined) | 2 | 4.4%
51 | CCOC(=O)C1=CCN(S(=O)(=O)c2ccc(C)cc2)C1c1ccc(Cl)cc1 (centres undefined) | 3 | -0.1%
52 | CC(C)Nc1ncnc2c1ncn2[C@H]1CN(Cc2ccc(-c3ccccc3)cc2)C[C@@H](CO)O1 | 1 | -1.0%
53 | Cc1cc2oc(=O)cc(CN(C)Cc3ccccc3)c2cc1Cl | -3 | -7.0%
54 | O=C(CC[C@H]1O[C@@H](n2ccc(=O)[nH]c2=O)[C@H](O)[C@@H]1O)NCc1cccc2ccccc12 | 0 | 1.6%
55 | COc1cc(-c2cc(NC=O)c3ncc(-c4ccc(C(C)=O)cc4)n3c2)cc(OC)c1OC | 6 | ?
56 | COc1cc(Cn2c3ccc(NC(=O)NCCc4ccccc4)cc3c(=O)n2C)ccc1F | 15 | 4.7%
57 | O=C(c1[nH]c(C(F)(F)F)nc1-c1ccccc1)N1CCN(c2ccc(C(F)(F)F)cn2)CC1 | -4 | -15%
58 | CC(=O)Nc1ccc(-c2ccnc3c2CC(C)(C(=O)Nc2ccccc2)O3)cc1 (centres undefined) | 1 | 4.7%
59 | CCCCNC(=O)C1(C)CCN1Cc1cc(C)ccc1C (centres undefined) | -7 | 3.1%
60 | CCOC1=C2[C@@H](CN(S(=O)(=O)c3ccc(C)cc3)[C@H]2c2ccccc2Cl)[C@H]2C(=O)N(C(C)(C)C)C(=O)[C@H]2C1 | 1 | -2.5%
61 | O=C(Nc1ccc2c(c1)CCO2)Nc1nnc([C@H]2C[C@H](O)[C@@H](CO)O2)s1 | -9 | 1.1%
62 | Clc1cccc(Cc2c(-c3cccc(Cl)c3)nc3ccc(Br)cn23)c1 | -5 | -3.9%
63 | NC(Cc1ccc(Cl)cc1)c1csc(Nc2cc(Oc3ccccc3)ncn2)n1 (centres undefined) | -1 | -4.3%
64 | CC(C)=NNc1cnnc2ccc([N+](=O)[O-])cc12 | 5 | -1.2%
65 | CCc1ccc(OC2(C)CCN(Cc3ccccc3OC(F)F)C2)cc1 (centres undefined) | -18 | -1.2%
66 | Cc1cc(C(=O)N2CCC2(C)C(=O)NCc2cccc3ccccc23)nn1C (centres undefined) | -3 | 1.6%
67 | C=C1C(=O)[C@]23C[C@H]1CCC2[C@]1(C)CCC[C@@](C)(C(=O)O)C1C[C@@H]3O (some centres undefined) | -15 | -2.1%
68 | CCc1nc2ccc(C(=O)NCCOc3ccc(OC)cc3)cn2c1N(C)Cc1nccn1C | -15 | 0.2%
69 | O=c1n(Cc2ccccc2)c(O)c2n1Cc1ccccc1N=C2c1ccccc1 | 3 | 0.7%
70 | OC(c1cccc(Cl)c1)c1nc(-c2cnc3ccccc3c2)cs1 (centres undefined) | 0 | -17%
71 | CC1(C(=O)NC2CCCCC2)CCC(=O)N1CC(F)(F)F (centres undefined) | 1 | 1.3%
72 | COC(=O)c1ccc2nc(C3CCCCC3)c(Cc3cccc(F)c3)n2c1 | -8 | -14%
73 | CCCCN1C(=O)C(CC(=O)NCc2ccco2)CC(C(=O)N(C(C)C)C(C)C)=C1C (centres undefined) | -9 | -2.2%
74 | O=C(NCc1ccc(F)cc1)c1cc(C2CCCN(C(=O)c3ccc4ccccc4c3)C2)on1 (centres undefined) | -10 | -4.3%
75 | CC1=C(C(=O)N(C(C)C)C(C)C)CC(CC(=O)NCC2CCCCC2)C(=O)N1Cc1ccccc1 (centres undefined) | 2 | 1.7%
76 | NC(Cc1ccccc1)c1csc(Nc2ccc(C(=O)NCCO)cc2)n1 (centres undefined) | -5 | -19%
77 | COc1ccc(CNC(=O)c2sc(=O)n(Cc3ccccc3OC)c2C)cc1 | -2 | -1.5%
78 | CCC(CC)C(=O)N(C)c1c(C)nc2c(OCC(=O)N(C)C)cccn12 | 3 | -3.8%
79 | COc1ccc(-c2csc(C(NC(C)=O)c3cccc(OC)c3)n2)cc1 (centres undefined) | 1 | -0.2%
80 | Cc1cc(F)cc(-c2cc(C(=O)NCc3ccccc3)[nH]n2)c1 | -10 | -0.4%
81 | CCCC(=O)N1CCCC1(C)C(=O)Nc1cc(OC)c(OC)c(OC)c1 (centres undefined) | 1 | -0.5%
82 | COc1cccc(C(O)c2nc(-c3cccc(F)c3)cs2)c1 (centres undefined) | -5 | -0.7%
83 | CC1(C(=O)Nc2ccc(F)c(Cl)c2)Cc2c(-c3cccc(C(F)(F)F)c3)ccnc2O1 (centres undefined) | 6 | -11%
84 | COc1ccc(-c2ccc(C(=O)NC3CCCCC3)c3occc23)c(C)c1 | -10 | 5.0%
85 | CC1(C(=O)NCC(F)(F)F)CCN1C(=O)C1(c2ccccc2)CC1 (centres undefined) | -4 | -0.4%
86 | COc1cc2oc(=O)cc(CN3CCN(c4ccccc4OC)CC3)c2cc1Cl | -15 | -16%
87 | CSCCC(c1nnnn1-c1c(C)cccc1C)N1CCN(C/C=C/c2ccccc2)CC1 (centres undefined) | -16 | -3.2%
88 | O=C(CSc1nc2ccccc2c(=O)n1-c1ccc(F)c(Cl)c1)Nc1ccc2c(c1)CCC2 | -3 | -16%
89 | O=C1C(c2ccccc2)=NCCN1C(c1ccc(F)cc1)c1nc2ccccc2[nH]1 (centres undefined) | -3 | -1.3%
90 | COc1ccc(-c2csc(C(O)(c3ccccc3)C(F)(F)F)n2)cc1 (centres undefined) | -3 | 0.0%
91 | Cc1ccc(F)c(S(=O)(=O)NC(=O)C2(C)CCN2C(=O)c2sccc2C)c1 (centres undefined) | -1 | -2.5%
92 | Cc1c(C(=O)NCc2cccc(Cl)c2)sc(=O)n1Cc1ccc(F)cc1 | 3 | -1.4%
93 | Nc1ncnc2c1ncn2[C@@H]1O[C@H](C(=O)N2CCCN(Cc3cccs3)CC2)[C@@H](O)[C@H]1O | -6 | -1.6%

Some of the compounds tested (hit frequency here may not be typical).
